High-throughput results deposited in PubChem by Fisher Drug Discovery Resource Center.
NPYLR7 ag – mosquito NPYLR7 agonism; HEK293T NPYLR7/Galpha15, GCaMP6s calcium fluorescence; activation, % at 10 µM; actives 0.15% (n = 270,000); in the data active means activation above about 40%;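 further: 0% = vehicle and 100% = reference agonist at the receptor; some compounds past the cut are filed as inactive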
NPYLR7 ag max-min – further read-out of NPYLR7 ag, marked with its call; activation, %; measured here: Max-Min RFU normalised activation; some inactives read as strong as hits;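 span of the calcium signal over five minutes; 0% = vehicle and 100% = native peptide agonist; compound fluorescence can raise it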
* marks the source's active call; other numbers are inactive results; & = joins results of further samples.

The opening 3 compounds as a preview:
SMILES	NPYLR7 ag	NPYLR7 ag max-min
COc1cc2c(cc1OC)C(c1ccccc1)N(C(=O)c1ccc(-c3ccc(OC)c(OC)c3OC)s1)CC2 (stereo not drawn)	29	12
Cc1cccc(NCC(=O)N2c3ccccc3NC(=O)CC2C)c1C (stereo not drawn)	3	2
COc1ccc(S(=O)(=O)N(Cc2ccc(OS(C)(=O)=O)cc2)CC(C)C)cc1	-4	5

The list itself, from the start:
SMILES	NPYLR7 ag	NPYLR7 ag max-min
COc1cc2c(cc1OC)C(c1ccccc1)N(C(=O)c1ccc(-c3ccc(OC)c(OC)c3OC)s1)CC2 (stereo not drawn)	29	12
Cc1cccc(NCC(=O)N2c3ccccc3NC(=O)CC2C)c1C (stereo not drawn)	3	2
COc1ccc(S(=O)(=O)N(Cc2ccc(OS(C)(=O)=O)cc2)CC(C)C)cc1	-4	5
Cc1cc(C)n2nc(N)nc2n1	1	-1
CCc1cc(=O)n2nc(N3CCC(C)(CCc4ccccc4)C3)sc2n1 (stereo not drawn)	0	5
CC1CCN(C(=O)C2CCCN(C3CC(C)OC3=O)C2)CC1 (stereo not drawn)	-1	8
COc1ccc(N=C2NC(=O)C(=Cc3ccco3)S2)cc1	0	-5
CCOc1ccc(NC(=O)c2c(OC)cccc2OCc2ccccc2)cc1	-7	-16
c1ccc(-c2ncn(CCCCN3CCCC3)c2-c2ccoc2)cc1	2	20
COc1ccc(Nc2ncc([N+](=O)[O-])cc2[N+](=O)[O-])cc1	-2	-4
Cc1ccc(-n2c(-c3ccc(F)cc3)cc(C(=O)N3CCN(C(=O)COCc4ccccc4)CC3)c2C)cc1	1	1
COc1ccc(-c2nc3cc(C)ccn3c2NC(=O)c2ccccc2)cc1	-4	3
CCn1c(SCC(=O)c2cc(F)ccc2F)nnc1-c1ccco1	11	8
CC1CCN(Cc2ccc(O)c3ncccc23)CC1	2	3
Cc1nn(C)c(C)c1CCC(=O)N1CCCC(C(=O)c2ccc3c4c(cccc24)CC3)C1 (stereo not drawn)	9	7
Cn1c(C(=O)N(CCC#N)C2CC2)cc2ccccc21	0	0
O=C(NCCc1cccc(Cl)c1)c1ccc(-c2ccc3c(c2)OCCO3)s1	35	35
Cc1c(C(=O)N(CCC#N)Cc2ccccn2)oc2ccccc12	0	5
CCN(C(=O)c1c([N+](=O)[O-])cnn1C)c1ccccc1	-7	-11
CC(=O)C1=C(Nc2ccc(C)cc2)CC(C)(O)C(C(C)=O)C1c1ccccc1F (stereo not drawn)	-1	20
CC(C)(C)NC(=O)COc1coc(CN2CCN(Cc3ccccc3)CC2)cc1=O	-2	48
Cc1cc(C(=O)N2CCN(c3ccccc3F)CC2)nc2cc(C(C)(C)C)nn12	2	5
CC(C)OCC(O)CN1CCN(CCN2C(=O)c3cccc4cccc(c34)C2=O)CC1 (stereo not drawn)	4	1
COc1cc(NC(=O)C(C)n2c(=O)oc3ccccc32)ccc1N1CCCC1=O (stereo not drawn)	9	3
COc1cccc(NC2=NS(=O)(=O)c3cc([N+](=O)[O-])ccc32)c1	-14	-17
SMILES	NPYLR7 ag	NPYLR7 ag max-min
COCC(=O)Nc1c(C)nn(-c2ccc(C)cc2)c1C	-2	-2
CC(C)[C@H](NC(=O)c1ccc(Cl)c(Cl)c1)c1nnc2c(C(F)(F)F)cccn12	-8	-14
COCCN(Cc1c(-c2ccccc2)nn(C)c1Oc1ccc(Cl)cc1)CC(O)COCc1ccccc1 (stereo not drawn)	1	7
Fc1ccc(CCC2CCCNC2)cc1F (stereo not drawn)	2	1
Cc1ccc(-c2cn3cccnc3n2)cc1NC(=O)c1ccc(C(F)(F)F)cc1	6	8
N#Cc1ccc(C=NNc2nncc3ccccc23)cc1	4	-1
CC(=O)Cn1c(CN2CCC(C)CC2)nc2c1c(=O)n(C)c(=O)n2C	0	14
COC(=O)c1ccc(CNC(=O)CCn2cnc3sc4c(c3c2=O)CCCC4)cc1	2	-6
Cc1cn2c3c(=O)n(CCC(C)C)c(=O)n(C)c3nc2n1Cc1ccco1	19	9
COc1ccc(S(=O)(=O)N2CCOCC2)cc1C(=O)NC1CCSc2ccc(F)cc21 (stereo not drawn)	3	1
COCCCN(CC(=O)N1CCc2sccc2C1COc1ccc(Cl)c(C)c1)C(=O)Nc1cccc(Cl)c1 (stereo not drawn)	-1	4
CN(C(=O)c1cnn2c(C(F)(F)F)cc(-c3ccc(Br)cc3)nc12)C1CCCCC1	18	9
CN(C)CCCNc1nc2cc(-c3cncnc3)sc2c(=O)n1C	3	0
Cc1ccc(Cl)c(NC(=O)CN2CCc3sccc3C2)c1Cl	-1	-2
CCCc1cc(C(=O)N2CCOC(c3ccc4cc(OC)ccc4c3)C2)ccn1 (stereo not drawn)	-9	-12
Cc1ccc(C2=NOC(CNCc3ccccc3Cl)C2)cc1 (stereo not drawn)	0	-3
CC(NCC1CC=CCC1)c1ccc(N2CCCC2=O)cc1 (stereo not drawn)	3	1
CCC(CO)NC(=O)Nc1cn(C)c2ccccc12 (stereo not drawn)	2	-4
CC(C)(C)CC(=O)N(Cc1cc(Cl)ccc1OCc1nc(CO)cs1)C1CCCCC1	-3	-3
CCC(C)C1N=C2c3ccccc3N=C(SCc3cc(=O)n4cc(Cl)ccc4n3)N2C1=O (stereo not drawn)	5	4
CCCCn1c(CN2CCN(CC)CC2)nc2c1c(=O)n(C)c(=O)n2C	3	15
COc1cc(OC)c(OC)cc1C=NNC(=O)COc1ccc(C#N)cc1	17	11
Cc1nc2n(n1)C(=O)C(C(c1cccs1)N1CCN(c3ccccc3F)CC1)S2 (stereo not drawn)	3	2
COC(=O)C1CCN(C(=O)CCc2c(C)nn(-c3nc(C)c(C)c(=O)[nH]3)c2C)CC1	7	0
CCCc1[nH]ncc1C(=O)N1CCCC(N2CCN(c3ccccc3F)CC2)C1 (stereo not drawn)	1	8

Reformatted with each value named: 4 of the compounds above
N#Cc1ccc(C=NNc2nncc3ccccc23)cc1
  NPYLR7 ag: 4	NPYLR7 ag max-min: -1

CCCCn1c(CN2CCN(CC)CC2)nc2c1c(=O)n(C)c(=O)n2C
  NPYLR7 ag: 3	NPYLR7 ag max-min: 15

COc1cc(OC)c(OC)cc1C=NNC(=O)COc1ccc(C#N)cc1
  NPYLR7 ag: 17	NPYLR7 ag max-min: 11

COCCN(Cc1c(-c2ccccc2)nn(C)c1Oc1ccc(Cl)cc1)CC(O)COCc1ccccc1 (stereo not drawn)
  NPYLR7 ag: 1	NPYLR7 ag max-min: 7

Profiles, quoted from the list:
Results for Cc1ccc(Cl)c(NC(=O)CN2CCc3sccc3C2)c1Cl = NPYLR7 ag = -1; NPYLR7 ag max-min = -2
Results for Cc1ccc(C2=NOC(CNCc3ccccc3Cl)C2)cc1 (stereo not drawn) = NPYLR7 ag = 0; NPYLR7 ag max-min = -3

Continuation:
SMILES	NPYLR7 ag	NPYLR7 ag max-min
CCCCNC(=O)c1c(Cl)ccc(S(=O)(=O)CC)c1Cl	0	-1
Cc1cc(C)nc(-n2[nH]c(-c3ccc(F)cc3)cc2=O)n1	4	22
CSc1ccc(NC(=O)N2CCCC2C(=O)Nc2nnc(-c3ccc(F)cc3)s2)cc1 (stereo not drawn)	28	29
CC(O)CNCc1c(OCc2ccccc2F)ccc2ccccc12 (stereo not drawn)	2	8
COc1ccc(CCNC(=O)NCC(c2ccsc2)N2CCCC2)cc1 (stereo not drawn)	6	-5
CC1(C(=O)Nc2ccc(F)cc2F)CCN1C(=O)Cc1ccccc1 (stereo not drawn)	-4	-4
O=c1nc(SC/C=C/c2ccccc2)nc2ccccn12	2	1
NC(CCCP(=O)(O)O)C(=O)O (stereo not drawn)	6	-11
CCC(CC)C(=O)N(CCN(C)C)Cc1cc(NC(=O)c2cccs2)ccc1N(C)C	7	7
Cc1ccc(NC(=Nc2nc3c(c(=O)[nH]2)CCCC3)NC(=O)c2ccccc2)c(C)c1	1	1
COC(=O)c1ccc(N=Cc2nc(-c3ccc(C)cc3)oc2O)cc1	-1	-8
Cc1ccc(C2c3ccccc3CCN2C(=O)c2cccc3cc[nH]c23)cc1 (stereo not drawn)	19	9
O=C(NCCc1ccc(Cl)cc1Cl)c1cc2c(s1)-c1ccccc1OC2	4	2
C=CCNc1nnc(SCc2nnc(-c3ccco3)o2)s1	6	5
COc1ccc(-c2nn(-c3cccc(C)c3)c(OC(C)=O)c2-c2ccc(NC(=O)Nc3ccc(C)cc3)cc2)cc1OC	-3	-1
Fc1ccccc1C1NCCc2cc3c(cc21)OCCO3 (stereo not drawn)	0	-4
CS(=O)(=O)c1ncc(CN2CCCCC2CO)n1Cc1ccccc1F (stereo not drawn)	1	-1
O=C(c1ccccc1OC(F)(F)F)N1CCN(c2nccc(-c3ccco3)n2)CC1	1	4
O=C(CC1CNCCO1)N1CCN(C(=O)c2ccccc2)CC1 (stereo not drawn)	6	5
CCOC(=O)c1cnc(-c2ccc(OC)cc2)nc1NCCC#N	1	11
Cc1c(C(=O)N2CCCC2)c(C(F)(F)F)nn1C1CCCN(C(C)C)C1 (stereo not drawn)	10	4
C=CCn1c(SCc2ccc(C)cc2)nc2c1c(=O)n(C)c(=O)n2C	1	-4
Cc1nc(CCNC(=O)c2cc(COc3ccc4c(c3)CCCC4)on2)sc1C	16&-5	2&-6
CCOC(=O)c1cc(C(=O)c2ccccc2)c(SC)n(C)c1=O	-1	-2
Cc1cc(C)c(S(N)(=O)=O)cc1C(=O)N1CC(C)C(N(C)C)C1 (stereo not drawn)	0	27
SMILES	NPYLR7 ag	NPYLR7 ag max-min
COc1ccc(CCN(Cc2sccc2C)C(=O)CN(CC(C)C)C(=O)COc2ccccc2)cc1OC	-5	1
O=C(C(=O)N1CCCCC1)c1ccc(C2CCCCC2)cc1	-9	-18
COc1ccc(CN(C)C(C)C(=O)NC2CCCC2)c2cccnc12 (stereo not drawn)	-2	36
COCCNC(=O)c1ccccc1NC(=O)c1cc(Cl)c2c(c1)OCCO2	6	2
Cc1ccc(-n2c(=O)[nH]c3c(C(N)=O)nc(-c4ccco4)nc32)cc1C	-7	-10
Cn1nc2c(c1NC(=O)Cc1ccc(S(C)(=O)=O)cc1)CCC2	16	14
COCCCN(CC(=O)N(CCc1c[nH]c2ccccc12)Cc1ccc(C(F)(F)F)cc1)C(=O)Nc1cccc(OC)c1	8	11
Cc1ccsc1[C@@H]1CCN(C(=O)C(=O)c2ccco2)C[C@H]1O	22	17
Cc1ccc2c(c1)c(C1CCN(C(=O)/C=C/c3ccc(OC(F)(F)F)cc3)CC1)cn2C	20	17
CN(Cc1cc(Br)cc2cccnc12)Cc1ncnn1C	-3	-5
O=C(CCN(Cc1ccco1)c1nc(-c2cccc(Br)c2)nc2ccccc12)Nc1ccccc1F	23	28
COc1ccc(S(=O)(=O)NC(=O)C(C)Oc2ccc(Cl)cc2)cc1OC (stereo not drawn)	7	1
S=c1[nH]nc(C2CC2)n1-c1ccc(Cl)c(Cl)c1	-8	-5
O=C(c1ccc(Oc2ccccc2)cc1)C1CCCN(C(=O)c2cnsn2)C1 (stereo not drawn)	14&1	4&-2
CCc1nc2n(n1)C(=O)C(C(c1ccc([N+](=O)[O-])cc1)N1CCC(C(N)=O)CC1)S2 (stereo not drawn)	-11	-16

A run of entries taken from the entries so far, as a working copy:
SMILES	NPYLR7 ag	NPYLR7 ag max-min
O=C(c1ccc(Oc2ccccc2)cc1)C1CCCN(C(=O)c2cnsn2)C1 (stereo not drawn)	14&1	4&-2
CCc1nc2n(n1)C(=O)C(C(c1ccc([N+](=O)[O-])cc1)N1CCC(C(N)=O)CC1)S2 (stereo not drawn)	-11	-16

The list is partial; rates above refer to the full screens.
